Screening results: PubChem, several laboratories
Rce1 inh: blocks yeast Ras-converting enzyme; Q03530; calls only; hit rate 0.27% among 290,000; yeast membranes, quenched prenylated peptide cleavage fluorescence;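 active means fall in fluorescence gain of 50% or more versus controls, with final raw signal at or below 3038400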;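 further: plate controls were neutral control wells for no effect and wells lacking membranes for full effect; tested at 10 µM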
PABP polyA inh: blocks human PABP binding to poly(A) RNA. P11940. fluorescence polarization. inhibition, % at 35 µM. hit rate 1% among 290,000. AID 2014;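 active means 50% or more with normal probe brightness, or confirmed in later tests; about a fifth of its hits are not listed in these tables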;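 further: calls also rest on retests at 20 µM and on dose response follow-up; controls were probe without protein and protein plus probe with vehicle; some compounds called inactive have numbers as strong as hits; many hits fall short of the cut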
Target sequence (P11940 whole entry, looked up): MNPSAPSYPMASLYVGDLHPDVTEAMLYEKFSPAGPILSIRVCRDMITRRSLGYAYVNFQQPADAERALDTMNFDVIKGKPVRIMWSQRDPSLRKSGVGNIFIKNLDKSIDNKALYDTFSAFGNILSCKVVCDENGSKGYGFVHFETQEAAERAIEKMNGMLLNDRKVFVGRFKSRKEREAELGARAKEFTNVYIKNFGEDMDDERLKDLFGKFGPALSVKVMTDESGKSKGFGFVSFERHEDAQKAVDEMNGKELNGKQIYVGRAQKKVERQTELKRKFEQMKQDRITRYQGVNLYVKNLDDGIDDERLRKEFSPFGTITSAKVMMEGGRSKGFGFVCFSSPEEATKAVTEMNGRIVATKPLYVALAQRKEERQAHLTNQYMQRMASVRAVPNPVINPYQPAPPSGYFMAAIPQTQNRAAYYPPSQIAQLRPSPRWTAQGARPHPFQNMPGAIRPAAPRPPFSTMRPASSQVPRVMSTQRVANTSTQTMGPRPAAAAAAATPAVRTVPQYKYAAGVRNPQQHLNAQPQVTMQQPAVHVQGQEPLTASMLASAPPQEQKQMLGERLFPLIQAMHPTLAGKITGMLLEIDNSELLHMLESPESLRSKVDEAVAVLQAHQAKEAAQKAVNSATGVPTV
eIF4H FP inh: inhibitors of RNA binding by human eIF4H; Q15056; hit rate 0.94% among 290,000; inhibition, % at 35 µM; eIF4H fluorescence polarization binding assay; AID 2012;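 active means 50% or more with normal probe brightness, or confirmed in later tests; about a fifth of its hits are not listed in these tables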;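 further: calls also rest on retests at 20 µM and on dose response follow-up; 0% = protein and probe with vehicle and 100% = probe without protein; strong numbers were not always called active; many hits fall short of the cut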
Env fusion inh: inhibitors of HIV Env-mediated cell fusion; inhibition, % at 12.3 µM; HeLa-JRFL Env/CEM21 cell fusion, luciferase; hit rate 1.1% among 360,000;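 active means mean replicate inhibition score of at least 50 and every replicate individually at or above 50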;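 further: 0% = plate neutral controls and 100% = maraviroc near 300 nM; one replicate is shown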
CSC inhib: cancer stem cell inhibition | hit rate 1.1% among 300,000 | AID 2717 | cancer stem cell-like cells viability, luminescence | inhibition, % at 7.5 µM;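 active means mean at 75% or more and at least half the replicates too; tested in HMLE shEcad cells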;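 further: 0% = median of negative and 100% = median of positive control wells; the first replicate is given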
MT1-MMP act inh: MT1-MMP (human) activation inhibition; P50281; HT1080 RFP-PRO-GFP cells, GFP/RFP ratio fluorescence, overnight; percent of plate control window, DMSO zero; GFP/RFP ratio change, % at 20 µM; hit rate 0.061% among 360,000; AID 651647;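 active means GFP/RFP ratio change of at least 30% with cell ATP level not reduced by more than half and red fluorescence within 50% of control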; further: strong numbers were not always called active
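Material: RFP-PRO-GFP reporter HT1080 cells. Dosing: single-point 20 µM compound, 1% DMSO. Controls: DMSO and RFP-L50D-GFP cell wells. Timing: cells overnight before dosing, compound overnight, 37 °C, 5% CO2. Measure: GFP/RFP fluorescence ratio.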
UUG fidelity: alters start codon recognition fidelity in yeast. S. cerevisiae UUG-firefly luciferase reporter, luminescence/redox ratio. activity score, % at 18.7 µM. hit rate 0.13% among 350,000;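 active means replicate mean at a twofold rise or more, about +100% in these data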;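 further: firefly luciferase made from a UUG start codon reports start codon fidelity; reporter light over untreated wells divided by growth signal over untreated wells; some hits fall short of that in this replicate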
eIF4H FP inh retest: further read-out of eIF4H FP inh, marked with its call; inhibition, %; compound at 20 µM; confirmation average;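 mean of two retest wells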
PABP polyA inh retest: also measured in PABP polyA inh; calls as there; inhibition, %; compound at 20 µM; confirmation repeats;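 mean of two retest wells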
MT1-MMP act inh RFP: recorded beside MT1-MMP act inh, whose call it bears; RFP signal change, %; measured here: RFP expression control read;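 0 = vehicle wells; hits needed this value within 50% of zero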
Starred values were filed as active, the others as inactive; i = inactive; . = no result given; & = joins results of further samples; [ ] = another dose, or the depositor's remark. Some of the compounds tested; the hit share may differ from the screen's.

SMILES	Rce1 inh	PABP polyA inh	eIF4H FP inh	Env fusion inh	CSC inhib	MT1-MMP act inh	MT1-MMP act inh RFP	UUG fidelity	others
Cc1ccc(N(CC2CO2)S(=O)(=O)c2ccccc2[N+](=O)[O-])cc1 (stereo unspecified)	i	-6	1	12	-11	5	7	-10
CN1CCN(CCCNC(=O)c2ccc(/C=C3\Oc4ccccc4N(Cc4ccc(Cl)cc4)C3=O)cc2)CC1	i	7	4	23	103*	2	-5	-14
COc1ccc(N(Cc2cc3ccc(C)cc3[nH]c2=O)C(=O)C2CCCO2)cc1 (stereo unspecified)	i	1	34	2	-7	-2	2	.
O=C(CP(=O)(c1ccccc1)c1ccccc1)N1CCCCC1	i	12	5	.	-8	1	1	-19
CCCS(=O)(=O)c1c(S(=O)(=O)CCC)c2cnccn2c1C(=O)c1ccc(Cl)cc1	i	3	4	.	-10	-1	-1	-12
CC(=O)Nc1ccc(-n2c(C)c(C(C)=O)c(C(C)=O)c2C)cc1	i	-2	0	.	-9	-1	2	-5
O=S(=O)(c1ccc(F)c(F)c1F)N1CCN(C(=S)NC2CC3CCC2C3)CC1 (stereo unspecified)	i	-4	3	14	-4	-1	-3	-15
CCOc1ccccc1C(=O)NC(C(=O)NCc1ccccc1OC)C(C)C (stereo unspecified)	i	-2	2	2	-11	0	2	.
COc1ccccc1OC1=NS(=O)(=O)c2ccccc21	i	6	-2	.	-16	2	12	-16
COc1ccc(NC(=O)CCc2nnc3ccc(NCc4ccco4)nn23)cc1	i	0	2	2	-4	4	-1	-9
NS(=O)(=O)c1ccc(N=Nc2ccc(=O)[nH]c2O)cc1	i	71*	90*	-41	12	4	0	.
Cc1ccc(OCCC(=O)OCC(=O)Nc2ccc(N3CCOCC3)cc2)cc1	i	.	.	-9	-12	14	2	-31
CCN(CC(=O)NC1CCS(=O)(=O)C1)S(=O)(=O)c1ccc(F)cc1 (stereo unspecified)	i	-15	8	24	-7	1	4	.
O=C(Oc1cccc(Oc2ccccc2)c1)N1CCOCC1	i	4	-5	-24	-6	-2	-5	-13
O=C(NC(=S)Nc1cc(C(F)(F)F)ccc1Cl)c1ccccc1	i	-4	-9	.	-7	-2	4	-15

Continued (4 carried over from the part before).
SMILES	Rce1 inh	PABP polyA inh	eIF4H FP inh	Env fusion inh	CSC inhib	MT1-MMP act inh	MT1-MMP act inh RFP	UUG fidelity	others
Cc1ccc(OCCC(=O)OCC(=O)Nc2ccc(N3CCOCC3)cc2)cc1	i	.	.	-9	-12	14	2	-31
CCN(CC(=O)NC1CCS(=O)(=O)C1)S(=O)(=O)c1ccc(F)cc1 (stereo unspecified)	i	-15	8	24	-7	1	4	.
O=C(Oc1cccc(Oc2ccccc2)c1)N1CCOCC1	i	4	-5	-24	-6	-2	-5	-13
O=C(NC(=S)Nc1cc(C(F)(F)F)ccc1Cl)c1ccccc1	i	-4	-9	.	-7	-2	4	-15
COc1ccc(CNC(=O)Cn2cnc3c(=O)n(C)c(=O)n(C)c32)cc1	i	3	2	2	-2	3	5	.
Clc1ccc(-c2nc3ccccc3nc2-c2ccccc2)cc1	i	8	-4	4	31	0	-5	-4
CCCCCCCCN1N=N[C@H]2[C@H]1[C@@H]1C[C@H]2N(C(=O)OC(C)(C)C)O1	.	.	.	7	.	0	0	-10
Cc1cc(N2CCOCC2)nc2ccc(NC(=S)NCc3ccc4c(c3)OCO4)cc12	i	-14	-3	-7	47	2	-3	.
O=C(/C=C/c1ccccc1)N/C(=C/c1ccccc1)C(=O)NCCO	i	2	-7	-9	.	-1	4	.
CC(C)NC(=O)N(C)C[C@@H]1OCCCC[C@@H](C)Oc2ccc(NC(=O)Nc3ccc(F)cc3)cc2C(=O)N([C@H](C)CO)C[C@@H]1C	.	.	.	18[16.7 µM]	.	4	3	-5&8
Cc1ccc(CN2C(=O)C(C)Nc3ncnc(N4CCN(c5ccccn5)CC4)c32)cc1 (stereo unspecified)	i	.	.	19	3	-1	-3	-3
Cc1cc(C)c(NC(=O)C2CCCN2CCOC(=O)c2ccccc2)c(C)c1 (stereo unspecified)	i	14	-3	5	-17	0	3	.
C=CCC[C@H](Cc1ccc(F)cc1)C(=O)OC[C@H]1CCCN1C(=O)[C@@H](CC=C)CC(=O)NCCO	.	.	.	-25	.	-3	4	-13
CCCCCC(=O)NNC1=NCC(Cc2cccc(Cl)c2)S1 (stereo unspecified)	i	1	-1	24	.	1	-1	.
COc1cc(NC(=O)COC(=O)CO/N=C(\C)c2ccc3c(c2)OCO3)cc(OC)c1	.	.	.	-19	-7	-1	0	-6
Cc1ccccc1C(=O)N(Cc1nc2ccccc2c(=O)[nH]1)C1CCCC1	i	-3	0	-8	-4	-4	-3	.
C[C@H]1CN([C@@H](C)CO)S(=O)(=O)c2ccc(Br)cc2O[C@H]1CN(C)S(=O)(=O)c1ccccc1	.	.	.	38	.	-6	-6	9&13&9
O=C(CN1CCOC1=O)N1CCCC(Nc2ccc(F)c(F)c2)C1 (stereo unspecified)	i	-5	-1	-8	-6	-2	0	-6
CC(C)c1ccc(OCC(=O)NCCO)cc1	i	2	-9	-13	7	2	3	-7
CC(C)(O)CC[C@@H](O)[C@](C)(O)[C@H]1CC[C@@]2(O)C3=CC(=O)[C@@H]4C[C@@H](O)[C@@H](O)C[C@]4(C)C3CC[C@]12C (stereo partly specified)	i	7	4	.	1	2	2	-11
COc1ccccc1N1CCN(Cc2nc3ccccc3c(=O)n2CC(C)=O)CC1	i	-2	-2	.	-4	3	5	-42
CCCOc1ccc(N2C(=O)CC(N(CCc3ccccc3)C(=O)c3ccccc3)C2=O)cc1 (stereo unspecified)	i	-2	2	15	-8	0	3	.
CCc1ccc(S(=O)(=O)/N=C2\C=CC(=O)c3ccccc32)cc1	i	-2	-1	.	40	.	.	.
O=C(O)Cc1sc(-c2ccccc2)nc1-c1ccccc1	i	-12	-15	-9	-4	-1	-1	-2
COc1cc(CNc2ncn[nH]2)ccc1OCc1cccc(C)c1	i	-10	1	-47	73	3	3	.
CC12CCC(=O)N1C(C(=O)Nc1ccc(Br)cc1Cl)CS2 (stereo unspecified)	i	5	4	5	-4	2	3	8
COc1ccc(-n2cnnc2SCC(=O)c2ccc(S(=O)(=O)N3CCOCC3)cc2)cc1	i	5	-3	4	8	1	-1	-28
CC(NC(=O)CCC(=O)N1CCCCCC1)c1ccccc1 (stereo unspecified)	i	6	-4	1	-4	-3	2	-2
COc1ccc(CCN2C(=O)CC(Cc3ccc(Br)cc3)C2=O)cc1OC (stereo unspecified)	i	-4	-9	.	.	2	-1	.
O=C(NCc1ccccc1Cl)C1CCN(S(=O)(=O)N2CCCCC2)CC1	i	-5	-8	16	-10	5	4	-4
O=C1C=C(N2CCN(C3=CC(=O)CCC3)CC2)CCC1	i	4	-9	-3	-1	-4	5	-8
O=c1[nH]cnc2c1C(c1ccccc1)c1c(nc[nH]c1=O)O2	i	-9	-3	-4	.	0	-1	-16
CCOC(=O)C1CCN(c2ccc(-c3cccs3)nn2)CC1	i	1	4	5	30	1	4	-57
COc1cccc(C(=O)O/N=C(\N)c2ccc([N+](=O)[O-])cc2)c1	i	7	2	-151	1	-4	2	-44

Entries above that contain an NH in an aromatic ring (five):
SMILES	Rce1 inh	PABP polyA inh	eIF4H FP inh	Env fusion inh	CSC inhib	MT1-MMP act inh	MT1-MMP act inh RFP	UUG fidelity	others
COc1ccc(N(Cc2cc3ccc(C)cc3[nH]c2=O)C(=O)C2CCCO2)cc1 (stereo unspecified)	i	1	34	2	-7	-2	2	.
NS(=O)(=O)c1ccc(N=Nc2ccc(=O)[nH]c2O)cc1	i	71*	90*	-41	12	4	0	.
Cc1ccccc1C(=O)N(Cc1nc2ccccc2c(=O)[nH]1)C1CCCC1	i	-3	0	-8	-4	-4	-3	.
COc1cc(CNc2ncn[nH]2)ccc1OCc1cccc(C)c1	i	-10	1	-47	73	3	3	.
O=c1[nH]cnc2c1C(c1ccccc1)c1c(nc[nH]c1=O)O2	i	-9	-3	-4	.	0	-1	-16

Next section:
SMILES	Rce1 inh	PABP polyA inh	eIF4H FP inh	Env fusion inh	CSC inhib	MT1-MMP act inh	MT1-MMP act inh RFP	UUG fidelity	others
Cc1coc2c(C)c3oc(=O)c(CCC(=O)N4CCC(C(=O)NCCCC(=O)O)(c5ccccc5)CC4)c(C)c3cc12	i	18	-5	0	-4	6	6	-5
Cc1cccc(C)c1N=C1SC(CC(=O)Nc2c(C)cccc2C)C(=O)N1CCc1ccccn1 (stereo unspecified)	i	-2	0	-29	11	-8	0	9
O=c1[nH]cnc2c1nc(SCc1ccccc1)n2C1OC(CO)C(O)C1O (stereo unspecified)	i	-2	-5	-39	-20	2	1	-7
O=C1NC(=O)/C(=C/c2ccc(-c3cccc([N+](=O)[O-])c3)o2)S1	i	0	53	-6	33	8	-12	-11	eIF4H FP inh retest=37;PABP polyA inh retest=36
Nc1nc(Cl)cc(Oc2ccc(Cl)cc2)n1	i	1	-2	-7	-7	3	-2	.
CC1Sc2n(c3ccccc3[n+]2C)N=C1c1ccccc1 (stereo unspecified)	i	-4	-4	60*	-3	-5	-30	.
Cc1c(C(=O)N2CCCC2)c(S(=O)(=O)N2CCN(c3ccccc3F)CC2)c(C)n1C	i	1	3	0	-6	-2	-2	12
O=C1C(Cl)=C(N2CCC(C(=O)O)CC2)C(=O)c2ccccc21	i	34	13	.	26	-6	3	.
COc1ccccc1N(CC(=O)N(CC(C)C)CC(C)C)S(=O)(=O)c1cccs1	i	-3	-1	15	-4	-3	-4	5
Cc1ccccc1N(C(=O)c1cccs1)c1nc2ccccc2s1	i	-11	2	-36	15	-12	-14	-8
Cc1ccccc1N1CC(C(=O)NC2CCCC2)CC1=O (stereo unspecified)	i	10	-3	-7	.	1	4	-17
Cc1cc(C)cc(C(=O)NCC(=O)OC(C)C(=O)N(C)c2ccccc2)c1 (stereo unspecified)	i	17	5	16	1	1	-4	-1
CCOC(=O)Cn1c(=O)oc2cc(S(=O)(=O)Nc3cc(OCC)ccc3OCC)ccc21	.	6	8	-3	-13	-1	0	.
Cc1c2cnn(-c3ccccc3)c(=O)c2c(C)n1CCCC(=O)NCCN1CCN(C)CC1	i	6	-5	-6	3	1	4	.
